# Source: PubChem BioAssay
# Rce1 inhib: yeast Rce1p protease inhibitors, primary screen, biochemical, fluorescence, cell-free homogeneous | AID 2563, 2010 | actives 0.27% (n = 290,000) | yeast membranes, quenched prenylated peptide cleavage fluorescence | calls only;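 active = fall in fluorescence gain of 50% or more versus controls, with final raw signal at or below 3038400; inconclusive = same 50% fall but final raw signal above 3038400; inactive = fall in fluorescence gain under 50%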;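 also: plate controls were neutral control wells for no effect and wells lacking membranes for full effect; tested at 10 µM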
# eIF4H inh: human eIF4H binding inhibitors, primary screen, translation initiation inhibitor project, biochemical, uHTS, fluorescence polarization. actives 0.94% (n = 290,000). inhibition, % at 35 µM. eIF4H fluorescence polarization binding assay. AID 2012, 2009;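 active = 50% or more with normal probe brightness, or confirmed in later tests; inconclusive = above 50% with abnormal brightness, or retests that disagree; inactive = below 50% or failed in later tests; about a fifth of its hits are not listed in these tables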;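 also: calls also rest on retests at 20 µM and on dose response follow-up; 0% = protein and probe with vehicle and 100% = probe without protein; strong numbers were not always called active; many hits fall short of the cut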
# PABP polyA inh: PABP poly(A) RNA binding inhibitors, primary screen, biochemical, fluorescence polarization, uHTS; inhibition, % at 35 µM; actives 1% (n = 290,000); AID 2014, 2009;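 active = 50% or more with normal probe brightness, or confirmed in later tests; inconclusive = above 50% with abnormal brightness, or retests that disagree; inactive = below 50% or failed in later tests; about a fifth of its hits are not listed in these tables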;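 also: calls also rest on retests at 20 µM and on dose response follow-up; controls were probe without protein and protein plus probe with vehicle; some compounds called inactive have numbers as strong as hits; many hits fall short of the cut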
# Target sequence (P11940 whole entry, looked up): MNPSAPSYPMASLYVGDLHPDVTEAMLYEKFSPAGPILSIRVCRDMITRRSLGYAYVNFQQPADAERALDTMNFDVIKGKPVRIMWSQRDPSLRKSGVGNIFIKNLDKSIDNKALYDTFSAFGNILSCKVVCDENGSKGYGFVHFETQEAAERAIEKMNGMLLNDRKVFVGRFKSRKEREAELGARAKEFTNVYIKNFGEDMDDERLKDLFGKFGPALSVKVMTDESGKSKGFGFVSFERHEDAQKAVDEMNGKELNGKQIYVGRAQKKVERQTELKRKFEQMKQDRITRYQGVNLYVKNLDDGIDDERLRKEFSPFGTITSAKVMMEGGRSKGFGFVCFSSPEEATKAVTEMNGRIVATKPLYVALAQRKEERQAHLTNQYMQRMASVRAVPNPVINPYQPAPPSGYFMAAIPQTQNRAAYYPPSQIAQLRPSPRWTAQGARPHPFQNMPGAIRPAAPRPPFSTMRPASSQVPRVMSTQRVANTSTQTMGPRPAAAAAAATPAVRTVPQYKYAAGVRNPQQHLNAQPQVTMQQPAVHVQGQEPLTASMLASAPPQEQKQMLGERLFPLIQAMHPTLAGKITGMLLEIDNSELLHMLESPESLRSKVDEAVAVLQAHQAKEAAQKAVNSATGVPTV
# UUG fidelity: modulators of yeast start codon fidelity, primary screen, whole organism, S. cerevisiae, single point, plate reader; S. cerevisiae UUG-firefly luciferase reporter, luminescence/redox ratio; activity score, % at 18.7 µM; actives 0.13% (n = 350,000);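 active = replicate mean at a twofold rise or more, about +100% in these data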;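 also: firefly luciferase made from a UUG start codon reports start codon fidelity; reporter light over untreated wells divided by growth signal over untreated wells; some hits fall short of that in this replicate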
# CSC inhib: cancer stem cell viability inhibitors, primary screen, luminescence | inhibition, % at 7.5 µM | AID 2717, 2010 | cancer stem cell-like cells viability | actives 1.1% (n = 300,000);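 active = mean at 75% or more and at least half the replicates too; inconclusive = mean and replicates disagree; tested in HMLE shEcad cells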;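 also: 0% = median of negative and 100% = median of positive control wells; the first replicate is given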
# Env fusion inh: inhibitors of HIV-1 Env-driven cell-cell fusion, primary screen, HeLa-JRFL effector, CEM21 target cells, luciferase; inhibition, % at 12.3 µM; actives 1.1% (n = 360,000); AID 651610, 2012;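 active = mean replicate inhibition score of at least 50 and every replicate individually at or above 50; inconclusive = only one of the two criteria met; inactive = mean below 50 and not all replicates reaching 50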;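 also: 0% = plate neutral controls and 100% = maraviroc near 300 nM; one replicate is shown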
# MT1-MMP act inh: blockers of MT1-MMP proenzyme processing, primary screen, HT1080 RFP-PRO-GFP cells, GFP/RFP fluorescence; Matrix metalloproteinase-14 (Homo sapiens), P50281; GFP/RFP ratio fluorescence, overnight; percent of plate control window, DMSO zero; GFP/RFP ratio change, % at 20 µM; actives 0.061% (n = 360,000);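 active = GFP/RFP ratio change of at least 30% with cell ATP level not reduced by more than half and red fluorescence within 50% of control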; also: strong numbers were not always called active
#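 Assay system: HT1080 cells carrying an RFP-PRO-GFP reporter | Dosing: Single dose of 20 µM compound, 1% DMSO final | Incubation: Cells overnight before dosing, compound overnight, 37 °C, 5% CO2 | Evaluation: GFP/RFP fluorescence ratio | Control set: DMSO and RFP-L50D-GFP cell wells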
# eIF4H inh retest: recorded beside eIF4H inh, whose call it bears; inhibition, %; compound at 20 µM; confirmation average;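 mean of two retest wells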
# PABP polyA inh retest: recorded beside PABP polyA inh, whose call it bears; inhibition, %; compound at 20 µM; confirmation repeats;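 mean of two retest wells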
# MT1-MMP act inh RFP: further read-out of MT1-MMP act inh, marked with its call; RFP signal change, %; measured here: RFP expression control read;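 0 = vehicle wells; hits needed this value within 50% of zero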
# The depositor's hits bear a star; i = inactive; ? = inconclusive; . = not tested or not shown; & = joins results of further samples.
SMILES,Rce1 inhib,eIF4H inh,PABP polyA inh,UUG fidelity,CSC inhib,Env fusion inh,MT1-MMP act inh,MT1-MMP act inh RFP,others
N#Cc1ccc(C(=O)N(Cc2ccco2)c2c(N)n(Cc3ccccc3)c(=O)[nH]c2=O)cc1,.,.,.,-10,.,-5,-3,1,
C[C@@H](NCCc1ccc(O)cc1)[C@@H](O)c1ccc(O)cc1,i,.,.,-7,-14,.,4,0,
COCCSc1nnc(NC(=O)CSc2ccccc2)s1,i,-2,-2,.,0,.,2,5,
COc1ccccc1C(c1nnnn1C(C)(C)C)N1CCN(Cc2ccccc2)CC1 (stereo not drawn),i,4,9,-11,3,.,-5,2,
CCOC(=O)C1CCN(C(c2cc3ccc(C)c(C)c3[nH]c2=O)c2nnnn2C2CCCCC2)CC1 (stereo not drawn),i,-4,30,4,-3,-26,-21,-7,
OC[C@@H]1CN(Cc2ccco2)C[C@H](n2cnc3c(N4CCN(c5ccccc5)CC4)ncnc32)O1,.,.,.,-5,.,-20,6,1,
CC(SCc1cn2cc(Cl)ccc2n1)C(=O)O (stereo not drawn),i,-9,6,.,-4,.,7,5,
Cc1c(NC(=O)c2noc(C(C)C)c2[N+](=O)[O-])c(=O)n(-c2ccccc2)n1C,i,2,-7,-7,-8,-22,3,4,
CCc1noc(C)c1C(=O)OCC(=O)NCc1ccccc1,.,.,.,2,.,-6,-6,0,
CCOC1=C2[C@H]([C@H]3C(=O)N(c4ccccc4)C(=O)[C@H]3C1)[C@@H](C(C)C)N(S(=O)(=O)c1ccc(C)cc1)[C@H]2c1ccccc1,.,.,.,-17,.,-55,1,1,
CCOc1ccc(OCC)c(S(=O)(=O)N2CCCCC2)c1,.,-2,9,-10,0,-11,0,-2,
Oc1cccc(NC(=S)Nc2cccnc2)c1,i,?,?,-18,-4,3,-4,11,
CCCSc1nc2cc(OC)c(OC)cc2c(=N)n1CCCN1CCOCC1,i,2,8,.,.,9,0,-2,
C=CCOc1c(Br)cc(CNc2ccc(NC(=O)C(C)C)c(OC)c2)cc1OCC,i,59,12,.,-24,-13,-6,2,eIF4H inh retest=24;PABP polyA inh retest=35
COc1ccc(NC(=O)CC2C(=O)N(c3cccc(C)c3)C(=O)N2C2CCCCC2)cc1 (stereo not drawn),.,7,-6,1,9,-128,4,-5,
COc1ccc(-c2cn(-c3ccc(C)cc3C)c(=S)[nH]2)cc1OC,i,-6,9,.,-1,13,2,-3,
CS(=O)(=O)Nc1ccc(S(=O)(=O)NC2CCCCC2)cc1,i,-13,6,.,-9,28,0,-2,
C=CCn1c(=O)c(C(=O)Nc2cccnc2)c(O)c2ccccc21,i,4,-4,-16,30,.,3,0,
CN(CC(=O)Nc1ccccc1Cl)C(=O)COC(=O)/C=C/c1ccccc1,i,.,.,-1,-2,8,2,0,
CC(C)CC1Nc2ncnc(N3CCOCC3)c2N(Cc2ccccc2)C1=O (stereo not drawn),.,.,.,-6&0,.,-8&1,3&3,7&5,
COc1cc(C(=O)OCC(=O)Nc2cccc(S(=O)(=O)N3CCOCC3)c2)ccc1OCC(C)C,i,.,.,.,-5,-6,2,1,
COc1ccc(C2=NOC3(CC(=O)N(c4ccc(C)cc4)C3=O)C2)cc1 (stereo not drawn),i,13,-1,-8,-4,-73,3,5,
COc1cccc(C(=O)Nc2ccc3nc4n(c(=O)c3c2)CCCC4)c1,i,1,10,-4,1,-3,3,-2,
CCN(CC)S(=O)(=O)c1ccc(C(=O)NCc2n[nH]c(=S)n2-c2ccc(Cl)c(Cl)c2)cc1,i,-4,0,.,4,-11,3,3,
CCn1cc(/C=C/C(=O)c2ccc(O)cc2)c(C)n1,i,-4,-7,.,0,-75,-2,-5,
Cc1ccc(S(=O)(=O)NCC(c2cccnc2)N2CCN(Cc3ccccc3)CC2)cc1 (stereo not drawn),i,-4,-4,-12,8,5,-4,-1,
COc1cccc(C2Nc3ccc4ccccc4c3C3=C2C(=O)CC(C)(C)C3)c1OCC(=O)O (stereo not drawn),i,-6,-13,-2,-40,14,-3,4,
CC1SC(C)C(=O)N(CC(=O)NCc2ccc(F)cc2)C1=O (stereo not drawn),i,-7,-8,-24,-7,0,-2,1,
Cn1cc(CN2CCC[C@H]2CO)c(-c2cccc(Cl)c2)n1,i,-12,-10,-9,1,7,-6,0,
CCCCN1c2ccccc2N(CCCO)c2cc(C)nnc21,i,-7,-5,-17,7,-20,-13,0,
Cc1c(NC(C)c2cc(Cl)ccc2O)c(=O)n(-c2ccccc2)n1C (stereo not drawn),i,-15,-2,-11,0,.,1,2,
O=C(NCc1ccccc1CN1CCCC1)C1CCN(C(=O)c2ccc(F)cc2)CC1,.,.,.,-11,.,2,-1,2,
CCOC(=O)c1c(C)[nH]c(C)c1S(=O)(=O)NCC(=O)Nc1ccccn1,i,-6,2,-15,-12,-5,3,4,
COC(=O)c1c(NS(=O)(=O)c2cccs2)sc2c1CCCC2,i,6,20,-19,-3,-82,-128,9,
CCOc1ccc(NC(=O)CN(C)C(=O)c2cc(S(=O)(=O)N3CCCCC3)ccc2C)cc1OCC,i,.,.,9,-4,3,4,0,
COc1cc2c(cc1OC)C(=O)Cc1ccc3c(c1CN(C)CC2)OCO3,i,5,-3,-13,-5,.,0,2,
CCOc1ccc(CN2CCNC(=O)C2CC(=O)NCCc2cnccn2)cc1 (stereo not drawn),i,-2,24,-1,-2,3,-2,4,
CCOC(=O)/C(=C\Nc1ccc(OC(F)(F)F)cc1)Sc1ncc(C(F)(F)F)cc1Cl,i,-8,-7,-21,8,.,1,-4,
COc1ccc(NS(=O)(=O)c2cc(NS(=O)(=O)c3cccs3)ccc2C)cc1,.,.,.,-11,.,-2,0,-3,
CC(C)CCNC(=O)c1onc(CSc2ccccn2)c1C(=O)NCCC(C)C,i,.,.,-4,55,1,3,-7,
N#Cc1ccc(NC(=O)C2CC(c3ccc(F)cc3)=NO2)cc1 (stereo not drawn),i,7,6,12,-11,38,18,10,
O=C(NC1CCN(C(=O)N2CCOCC2)CC1)c1ccccc1,i,0,-10,7,-10,-3,6,7,
Cc1ccc(S(=O)(=O)N(C)CC(=O)Nc2ncccc2C)cc1,i,.,.,-4,-13,.,7,5,
COc1ccccc1N1CCSC1C(N)=O (stereo not drawn),i,12,9,-2,.,.,1,6,
N#Cc1ccc(OCc2cccc(S(=O)(=O)N3CCOCC3)c2)cc1,i,.,.,-25,1,11,-2,-6,
COc1ccc(-c2coc3c(C(=O)NCc4ccco4)cccc23)c(C)c1,.,.,.,0,.,30,-3,-18,
Cc1onc(-c2c(Cl)cccc2Cl)c1C(=O)c1c[nH]c(C(=O)NCC2CCCO2)c1 (stereo not drawn),i,-2,8,51,9,-6,-1,-6,
C=CCN(c1ccccc1)S(=O)(=O)c1cccc(C(=O)NCc2ccncc2)c1,i,.,.,.,4,3,0,-7,
COc1ccc(NC(=O)NC2(C(=O)N3CCCCCC3)CCCCC2)cc1,i,-11,1,-20,-18,38,-6,-5,
CC(C)c1ccccc1NC(=O)Nc1ccc2c(c1)OCO2,i,0,16,3,-1,-11,-1,1,
CC(C)C(=O)N1CCN(c2ccccc2N)CC1,i,-15,-3,-16,-14,2,-4,3,
CCN1C(=O)C(CC(=O)Nc2cccc(C(C)=O)c2)S/C1=N\c1ccccn1 (stereo not drawn),i,1,9,.,1,9,1,-3,
O=C(NC1CCCC1)C(c1ccc(N2CCOCC2)cc1)N(Cc1ccccc1)C(=O)c1ccco1 (stereo not drawn),i,6,-1,-16,-8,.,2,4,
O=C(COc1ccccc1)Nc1ncn[nH]1,i,-4,-4,-22,-16,-16,1,4,
COc1ccc(CNC(=O)COC(=O)/C=C/c2ccc(Cl)cc2)cc1,i,-4,-2,.,3,0,-3,3,
COc1cc(=O)oc(-c2ccccc2)c1C(C)=O,i,.,.,.,-9,-12,1,5,
Cc1ccc(C)c(NC(=O)CSc2nncn2C)c1,i,0,8,-15,-20,1,7,1,
O=C(Nc1ccc2ccccc2c1)c1ccc(Cl)cc1Cl,i,2,5,-7,10,-358,3,-4,
CCCCCOCC1CC(C/C(C)=N/NC(N)=O)(C(=O)OCC)C(=O)O1 (stereo not drawn),i,3,10,5,3,-6,2,4,
O=[N+]([O-])c1ccc(-c2ccc(S(=O)(=O)N3CCOCC3)cc2)cc1,i,0,-2,-21,14,-11,-4,-2,
# Next records:
SMILES,Rce1 inhib,eIF4H inh,PABP polyA inh,UUG fidelity,CSC inhib,Env fusion inh,MT1-MMP act inh,MT1-MMP act inh RFP,others
Cc1cccc(-n2c(SCC(=O)NCc3ccco3)nc3ccccc3c2=O)c1,i,5,-2,-13,.,62*,4,1,
Cn1cccc1/C=N/NC(=O)Cc1cccc2ccccc12,i,2,0,.,7,7,-2,-7,
Cc1ccc(CNC(=O)Cn2cnc3c(OCc4ccccc4)ncnc32)o1,.,.,.,-2,.,6,1,2,
O=C(CN1C(=O)c2ccccc2S1(=O)=O)c1cccc(Br)c1,i,-8,5,-20,-9,33,2,3,
Cc1cc(C)c(C)c(S(=O)(=O)N2CCN(C(=O)c3ccccc3OCc3c(C)noc3C)CC2)c1C,.,.,.,-5,.,-22,-2,-3,
O=C(CC1C(=O)NCCN1Cc1ccccc1C(F)(F)F)NCCn1cccn1 (stereo not drawn),i,20,-1,0,-8,16,-1,3,
O=C(CN1CCN(c2ccccc2O)CC1)Nc1cc([N+](=O)[O-])ccc1Cl,i,-5,3,.,-15,9,4,7,
CCOC(=O)Cc1csc(-n2sc3ccccc3c2=O)n1,i,1,9,-1,-2,.,-3,4,
Cc1[nH]c2ccccc2c1/C=N/Nc1ccc([N+](=O)[O-])cc1S(=O)(=O)Nc1ccc(Cl)cc1,i,-11,-2,-10,16,21,-165,-4,
C/C(=N\NC(=O)c1nnn(-c2nonc2N)c1-c1ccc2c(c1)OCO2)c1ccc(C)cc1,i,-14,2,-14,5,13,4,2,
COc1ccc(/C=C2\SC(=O)N(CC(=O)NC3C=CS(=O)(=O)C3)C2=O)cc1 (stereo not drawn),i,5,-2,-6,4,-6,1,-2,
Cc1ccc(NC(=O)CN(C)C(=O)c2cc(-c3ccco3)nc3ccccc23)cc1,i,.,.,-5,.,10,-3,5,
Cc1[nH]c(C)c(S(=O)(=O)NCc2ccc(N(C)C)cc2)c1C(=O)N1CCCC1,i,-3,-13,14,-27,3,1,3,
CCN(CC(=O)Nc1ccc(OC)c(OC)c1)S(=O)(=O)c1ccc(C)cc1,i,0,2,-5,.,.,2,-1,
